# Bioassay records as filed in PubChem BioAssay.
# AmpC inh no det = Promiscuous and Specific Inhibitors of AmpC Beta-Lactamase (assay without detergent); actives 1.8% (n = 71,000); AmpC nitrocefin hydrolysis, absorbance 480 nm, no detergent; potencies from a single point are estimates; P00811; Potency, µM (titrated, usually from 28.7 µM), for the others: top-dose activity change, negative = inhibition; AID 585, 2007; active = falling curve, for most hits resting on a single point; inconclusive = weak or doubtful change; inactive = flat or rising curve; also: % of control where 0% means no effect; about half of the hits show no inhibition at the top dose; a quarter of the inactives give rising signals
# Target sequence (P00811 whole entry, looked up): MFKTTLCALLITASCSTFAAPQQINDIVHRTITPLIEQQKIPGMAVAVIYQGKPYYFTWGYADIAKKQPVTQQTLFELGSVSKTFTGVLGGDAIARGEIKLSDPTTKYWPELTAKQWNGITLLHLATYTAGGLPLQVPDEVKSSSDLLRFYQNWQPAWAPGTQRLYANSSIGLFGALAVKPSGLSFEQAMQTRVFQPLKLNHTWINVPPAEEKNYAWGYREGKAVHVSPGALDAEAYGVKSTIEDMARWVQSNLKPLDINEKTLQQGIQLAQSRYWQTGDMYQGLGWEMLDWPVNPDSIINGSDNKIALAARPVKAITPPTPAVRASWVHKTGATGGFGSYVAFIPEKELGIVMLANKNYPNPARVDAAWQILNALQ
#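 AmpC, 20 mM phosphate pH 7.0; 15 min cpd preinc, RT; start with nitrocefin (800 uM stock); A480 kinetic read, 20 s intervals, 4 min. No-enzyme wells = negative control.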
# * = called active by the depositor; u = inconclusive; & = joins results of further samples; [ ] = remark or other dose. Potency is read from the fitted curve at half-maximal effect.
SMILES,AmpC inh no det
O=P1(N(CCCl)CCCl)NCCCO1 (stereo not drawn),-6%&-5%
CCN(CC)c1nc(Nc2ccccc2)nc(Oc2ccc(=O)[nH]n2)n1,23%
O=C(c1cc(-c2ccco2)on1)N1CCN(C(c2ccccc2)c2ccccc2)CC1,-12%
COc1ccccc1-n1c(O)c(C=NCc2ccc3c(c2)OCO3)c(=O)[nH]c1=O,2%
N#Cc1ccc(N2CCN(C(=O)c3cccc(F)c3)CC2)c(F)c1,37%
CCn1c(CSc2nc3ccccc3s2)nc2ccccc21,5%
O=C(O)CCc1nc2ccccc2[nH]1,8%[5.75 µM]
CS(=O)(=O)N1CCC2(CCCN(Cc3cc(C(F)(F)F)cc(C(F)(F)F)c3)C2)CC1,141%
CC1(c2ccc(Cl)cc2Cl)OCC(Cn2ccnc2)O1 (stereo not drawn),51%
Oc1c(CN2CCc3ccccc3C2)cc(Cl)c2cccnc12,2.5µM*[single pt active]
CCOc1ccc(-n2c(Cc3cc(=O)[nH]c(=O)[nH]3)nnc2SCC(=O)NC2CCCC2)cc1,u
C[C@@]12CC[C@@H]3[C@@H](CC[C@H]4C[C@@H](O)CC[C@]43C)[C@H]1CC[C@@H]2c1cc(C(F)(F)F)n[nH]1,-6%[5.75 µM]
O=C(Cc1ccccc1)n1nc(-c2ccccc2)nc1NCc1ccco1,4µM*[single pt active]
O=C(c1cccc(F)c1)N1CCN(C(=O)c2nn3cccnc3c2Cl)CC1,7%
COc1ccc(N2CCN(C(=O)CCCn3c(=S)[nH]c4cc5c(cc4c3=O)OCO5)CC2)cc1,8%
Cc1cc(NC(=O)CSc2ccc3nnc(-c4ccc(Cl)cc4)n3n2)no1,40%
Cc1ccc(S(=O)(=O)NC(=O)c2cc(C)n(CCCN3CCOCC3)c2C)cc1,-4%
COc1cc(-c2nc(S(=O)(=O)c3ccc(Cl)cc3)c(N(C)C)o2)cc(OC)c1OC,73%
COc1ccc(CCN2C(=O)CC(C(N)=O)SC2=Nc2ccccc2)cc1OC (stereo not drawn),124%
CCOC(=O)CN(C(=O)CSc1nnc(CNc2ccc(F)cc2)o1)c1ccccc1,53%
CC(=O)n1c(COS(C)(=O)=O)nc2ccccc21,-6%[5.75 µM]
c1ccc(CCNc2c3c(nc4ncnn24)CCC3)cc1,23%
CC(C)CC(=O)Nc1ccc(C(=O)COc2ccc(-c3nnco3)cc2)cc1,8%
CCOc1cc(CN2CCN(C(=O)CC(C)C)CC2)ccc1OC,34%
COc1cccc(C(=O)CSc2nnc(CNS(=O)(=O)c3ccc(C)cc3)n2C)c1,33%
CCOc1ccc(NC(=O)C2CC(=O)NC(N3CCc4ccccc43)=N2)cc1 (stereo not drawn),14%
Cc1cc(C)n(C(=O)c2ccc(NC(=O)CC(C)C)cc2)n1,6%
COc1cc(NC(=O)CSc2nnc(C)s2)cc(OC)c1OC,14%
Cc1cccn2c(=O)c3cc(C(=O)NCC4CCCO4)c(=N)n(Cc4cccnc4)c3nc12 (stereo not drawn),13%
O=S(=O)(Nc1ccc2c(c1)OCO2)c1ccc(Br)s1,-21%
Cc1ccc2cc(CCNC(=O)c3ccc(Br)o3)c(=O)[nH]c2c1,-15%
CS(=O)(=O)O[C@H]1CN2CCC1CC2,0%[5.75 µM]
Cc1noc(C)c1COC(=O)CCCOc1ccc(Cl)cc1Cl,40%
CCOc1nc(CC)nc(NC(=O)NS(=O)(=O)c2ccccc2Cl)n1,-3%
O=C(Nc1ccc(-c2nc3cccnc3s2)cc1)c1ccc(Br)o1,17%
COc1cccc(-n2ccnc2SCC(=O)Nc2cc(OC)ccc2OC)c1,26%
CCOc1ccccc1NC(=O)CSc1ccccc1,-10%
c1ccc(CC2CCN(c3nc(N4CCOCC4)nc(N4CCOCC4)n3)CC2)cc1,69%
COCCn1nnnc1C(c1cccs1)N1CCN(c2ccccc2)CC1 (stereo not drawn),53%
COc1ccc(C2C(=O)N(C3CCCCC3)CC(=O)N2CCc2ccccc2)cc1OC (stereo not drawn),77%
O=C(O)C1CC(=O)N(c2ccc(Br)cc2)C1 (stereo not drawn),-7%
CC(=O)OC(C(=O)NCS(=O)(=O)c1ccc(C)cc1)c1cccnc1 (stereo not drawn),-4%
Cc1ccn2cc(CCNC(=O)CC(C)(C)C)nc2c1,3%
COC(=O)c1cccc(NC(=O)Cn2cnc3ccccc3c2=O)c1,-7%
O=C(c1ccc2c(c1)OCO2)N1CCN(c2ccccc2F)CC1,10%
C[C@H]1CC(C)(C)C[C@@](OCCN2CCCCC2)(c2ccccc2)C1,19%[5.75 µM]
CCOC(=O)c1ccc(NC(=O)CCc2nc(-c3ccc(C)cc3)no2)cc1,17%
COC(=O)c1cc(NC(=O)c2ccoc2C)cc(C(=O)OC)c1,1%
CCOc1cc(C(=S)N2CCN(C)CC2)ccc1OCC(=O)N1CCOCC1,1%
Cc1ccc(C2C(C#N)=C(N)Oc3n[nH]c(C)c32)cc1 (stereo not drawn),1%
Nc1nonc1C(=Nc1ccccc1)NO,-4%
Nc1ccc2oc(-c3cccc(Br)c3)nc2c1,57%
COc1ccccc1NC(=O)N1CCCC1C(=O)NCc1ccccc1F (stereo not drawn),9%
Cc1cc(=O)[nH]c2cc3oc4ccccc4c3cc12,15%[5.75 µM]
Cc1nn(C)cc1CN(C)C(=O)c1nn2c(c1Cl)NC(c1cccs1)CC2C(F)(F)F (stereo not drawn),125%
CCN(CC)C(=O)CSCC(=O)Nc1ccccc1,0%
Cc1ccccc1C(=O)N1CCCN(C(=O)c2ccccc2C)CC1,30%
O=C(O)Cc1ccc2[nH]c3ccc(CC(=O)O)cc3c2c1,-13%
C#CCN(C)Cc1ccccc1,0%[12.8 µM]
O=CN1CCN(C2CC(=O)N(c3ccc(Br)cc3)C2=O)CC1 (stereo not drawn),21%

# A different layout for part of the listing above.
Compound	AmpC inh no det
Cc1cc(=O)[nH]c2cc3oc4ccccc4c3cc12	15%[5.75 µM]
CCOc1cc(C(=S)N2CCN(C)CC2)ccc1OCC(=O)N1CCOCC1	1%
Cc1ccc(C2C(C#N)=C(N)Oc3n[nH]c(C)c32)cc1 (stereo not drawn)	1%
O=CN1CCN(C2CC(=O)N(c3ccc(Br)cc3)C2=O)CC1 (stereo not drawn)	21%
Cc1nn(C)cc1CN(C)C(=O)c1nn2c(c1Cl)NC(c1cccs1)CC2C(F)(F)F (stereo not drawn)	125%
Nc1ccc2oc(-c3cccc(Br)c3)nc2c1	57%

# Next part
SMILES,AmpC inh no det
N=C(N)SCCSC(=N)N,2%[5.75 µM]
CCOc1ccc(C(C)=O)cc1N1C(=O)C2C3C=CC(C3)C2C1=O (stereo not drawn),-4%
CN(c1ccccc1C(=O)N1CCOCC1)S(C)(=O)=O,-11%
COCCn1nnnc1C(C(C)C)N1CCOCC1 (stereo not drawn),-4%
CC(C(=O)Nc1ccc(S(=O)(=O)N2CCOCC2)cc1)N(c1ccccc1)S(C)(=O)=O (stereo not drawn),23%
C=C(Cl)CSC(=S)N(CC)CC,-14%
CCOc1cc(C2C(C#N)=C(N)Oc3n[nH]c(-c4ccccc4)c32)ccc1O (stereo not drawn),-16%
COc1cc2c(cc1OC)C(c1ccc3c(c1)OCO3)CC(=O)N2 (stereo not drawn),89%
Nn1cnnc1SCC(=O)Nc1ccc(C2CCCCC2)cc1,27%
CC(C)Nc1ncnc2c1cnn2-c1ccccc1,0%
COc1cccc(/C=C2\N=C(SC)SC2=O)c1OC,6%
CC(=O)N1CCC2(CC1)CC(=O)c1cc(OCC(=O)N3CCN(C)CC3)ccc1O2,-5%
O=C1CC(c2ccco2)=Nc2ccccc2N1,-11%
O=C(CCCn1c(=S)[nH]c2cc3c(cc2c1=O)OCO3)N1CCN(c2ncccn2)CC1,27%
Cc1ccc(Cn2nnc3c(=O)n(CC(=O)N4CCCCC4)cnc32)cc1,12%
O=c1oc(-c2cccc(S(=O)(=O)N3CCOCC3)c2)nc2ccccc12,41%
O=C(O)c1ccc(C(=O)c2ccc3c(c2)C(=O)N(Cc2ccco2)C3=O)cc1,-5%
COc1cccc(C2C(C(=O)Nc3cccnc3)=C(C)Nc3nnnn32)c1OC (stereo not drawn),-7%
CC(=O)c1cccc(NC(=O)CN2C(=O)C3C4C=CC(C4)C3C2=O)c1 (stereo not drawn),6%
O=S(=O)(NCCc1ccccc1F)c1cccc(S(=O)(=O)N2CCOCC2)c1,3%
Cc1cc(NC(=O)CCC(=O)N(c2ccccc2)C(C(=O)NC2CCCC2)c2cccs2)no1 (stereo not drawn),24%
Cc1cccc(NC(=O)CCn2nc(C)cc2C)c1,6%
O=C(COc1ccc(Cl)cc1)OCC(=O)N1CCCCCC1,34%
CCCc1ccccc1OCCNC(C)=O,-8%
CCn1c(SCC(=O)N2CCN(c3ccccc3)CC2)nnc1-c1cc2cc(Cl)ccc2o1,35%
CC1=C(C)NC(=S)SC1,-8%
COc1cc(-c2nnc(SCC(=O)OC3CCCCC3)o2)cc(OC)c1OC,108%
CC1=C(C#N)C(=O)N(C)C(C)(C)C1,-2%
CN1[C@@H]2CC[C@H]1CC(OC(c1ccc(F)cc1)c1ccc(F)cc1)C2 (stereo partly drawn),48%
CC(C)[C@H](CO)Nc1nc(Nc2ccc(C(=O)O)c(Cl)c2)c2ncn(C(C)C)c2n1,-7%
Cc1cc(C(=O)NCc2ccc(S(N)(=O)=O)cc2)c(C)o1,-6%
CCCCC(=O)Nc1sc2c(c1C(N)=O)CCC2,-12%
O=C(NCc1ccco1)c1cccc2ccccc12,2%
COc1ccccc1N1CCN(CCCCN2C(=O)c3ccccc3C2=O)CC1,40%&37%
CCCN1CCC(N2CCN(c3cccc(C(F)(F)F)c3)CC2)CC1,-6%
CC(NC(=O)c1ccccc1NS(C)(=O)=O)c1ccccc1 (stereo not drawn),12%
Cc1ccc(CCSCC(=O)O)cn1,11%
CC1=CC(C)(C)Nc2ccc(OC(=O)c3ccco3)cc21,12%
S=c1[nH]ncn1/N=C/c1ccccc1,-4%
CCOC(=O)C1CCN(C(=O)c2cccc(C(=O)N3CCC(C(=O)OCC)CC3)c2)CC1,70%
COc1ccc(S(=O)(=O)N(Cc2cccs2)C2CCCC2)cc1,0%
CC(C)CCN1C(=O)CCC1(C)C(=O)NC1CCCCCC1 (stereo not drawn),38%
CC(=O)N1CCN(S(=O)(=O)c2cccc(C(=O)Nc3ccc4c(c3)CCC4)c2)CC1,130%
COc1ccc(C(=O)Nn2cc3c(c2-c2ccccc2)c(=O)n(C)c(=O)n3C)cc1,31%
N#Cc1c(NC(=O)c2cc(-n3cnnc3)ccc2Cl)sc2c1CCCC2,-5%
Cn1c(SCc2ccc(Br)cc2)nnc1-c1cccs1,10%
O=c1c2ccccc2nc(CN2CCCCCC2)n1-c1ccc(F)cc1,4%
CCN(CC)C(=O)CSc1nnc(-c2cc3ccccc3cc2O)n1CC,46%
CCOc1ccc(OCc2ccc(C(=O)NCC3CCCO3)o2)cc1 (stereo not drawn),39%
O=C(N1CCCCC1)C12CC3CC(C1)CC(C(=O)N1CCCCC1)(C3)C2,26%
CCCCC(=O)NC(Nc1nc(C2CC2)cs1)(C(=O)OCC)C(F)(F)F (stereo not drawn),1%
COc1ccc(-c2nc(N)n[nH]2)cc1OC,-7%
COC(=O)CSc1nc(C2CC2)cc(C(F)(F)F)c1C#N,0%
CC1(C(=O)O)CCC(C(=O)Nc2ccc(S(N)(=O)=O)cc2)C1(C)C (stereo not drawn),-7%
COc1ccccc1N1CCN(C(=O)c2ccc(C(C)(C)C)cc2)CC1,84%
N#Cc1ccccc1NC(=O)Nc1cccc(Cl)c1,-6%
CCOC(=O)C1=C(C)OC(N)=C(C#N)C1C1CCCCC1 (stereo not drawn),-6%
CC1(C)CC(=O)C(C=NCCN2CCN(C(=O)CC3CCCC3)CC2)=C(O)C1,72%
O=C(NCc1ccco1)C1CCN(c2ccc(N3CCOCC3)nn2)CC1,4µM*[single pt active]
COc1ccc(CCNc2oc(-c3ccc(C)cc3)nc2C#N)cc1OC,4µM*[single pt active]
# The listing continues.
SMILES,AmpC inh no det
CN(CC(=O)NCc1cccs1)S(=O)(=O)c1cccc2cccnc12,3%
COc1cccc(C(c2sc3nc(C)nn3c2O)N2CCc3ccccc3C2)c1 (stereo not drawn),-1%
COc1ccc(CNc2ccnc(-c3ccccc3Cl)n2)c(OC)c1,31%
Clc1ccccc1-c1cc(NCc2cccnc2)ncn1,5%
O=c1n(-c2ccccc2)c(=O)n2n1CCCC2,8%
CS(=O)(=O)CCC(C(=O)N1CCOCC1)N1C(=O)c2cc(Cl)c(Cl)cc2C1=O (stereo not drawn),35%

# Quoted at random: 5 entries already listed, in no set order.
SMILES,AmpC inh no det
CC(C)CCN1C(=O)CCC1(C)C(=O)NC1CCCCCC1 (stereo not drawn),38%
CCOC(=O)C1=C(C)OC(N)=C(C#N)C1C1CCCCC1 (stereo not drawn),-6%
COc1cccc(C2C(C(=O)Nc3cccnc3)=C(C)Nc3nnnn32)c1OC (stereo not drawn),-7%
COc1cccc(C(c2sc3nc(C)nn3c2O)N2CCc3ccccc3C2)c1 (stereo not drawn),-1%
CCCCC(=O)Nc1sc2c(c1C(N)=O)CCC2,-12%

# A portion of the library. The share of hits here may be higher or lower than overall.
